# Sa growth 42C = S. aureus growth inhibition. S. aureus RN4220 growth, OD600, 20 h, 42 °C; stronger effect = lower value. relative growth, % (concentration not given with the values). hit rate 0.53% among 170,000. AID 720641;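 active = growth at 42 °C up to 50% and 20 or more points under that at 30 °C, or under 10% at both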;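 note: 300 nL library stock went into each well; scaled to the means of positive and negative controls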
# HCMV NEC inh = disrupts HCMV UL50-UL53 complex binding; HTRF UL50-UL53 interaction, normalized percent inhibition; inhibition, % (test concentration not listed); hit rate 0.15% among 190,000; AID 1918969;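 active = both replicates at 50% or more, plus weaker picks with an unusually low signal ratio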;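 note: stock transfer was 100 nL into about 20 µL; 0% = negative control wells and 100% = wells with untagged competitor protein; inactives centre near -12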
# GIV Gai3 FP = blocks GIV peptide binding to rat Galpha-i3. P08753. Galpha-i3/FITC-GIV peptide fluorescence polarization, 90 min; stronger effect = lower value; scaled: aluminum fluoride 0%, vehicle 100%. percent of control (FP), % (test concentration not listed). hit rate 0.42% among 210,000. AID 1224905;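 active = replicate mean at 85% of control or lower, very high polarization wells dropped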;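 note: wells of about 15 µL received 100 nL stock; the first replicate is given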
# Target sequence (P08753 whole entry, looked up): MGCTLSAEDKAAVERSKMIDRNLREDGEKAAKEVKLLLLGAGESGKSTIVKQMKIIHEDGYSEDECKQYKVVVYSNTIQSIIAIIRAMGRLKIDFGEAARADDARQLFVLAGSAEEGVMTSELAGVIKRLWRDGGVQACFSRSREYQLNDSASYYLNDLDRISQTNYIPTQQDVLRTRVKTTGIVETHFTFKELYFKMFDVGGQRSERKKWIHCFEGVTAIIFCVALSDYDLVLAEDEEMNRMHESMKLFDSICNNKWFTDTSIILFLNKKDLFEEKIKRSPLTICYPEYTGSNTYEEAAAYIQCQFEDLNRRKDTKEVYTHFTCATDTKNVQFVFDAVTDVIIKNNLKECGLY
# Sa growth 42C second temp = also measured in Sa growth 42C; calls as there; relative growth, %; measured here: growth at 30 °C;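 optical density after 20 h as mean of two plates; 100% = untreated growth and lower means inhibition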
# * = called active by the depositor; . = not tested or not shown; & = joins results of further samples.
SMILES,Sa growth 42C,Sa growth 42C second temp,HCMV NEC inh,GIV Gai3 FP
N#CSc1ccc(NC(=O)C2=Cc3cc(Br)ccc3OC=C2)cc1,.,.,8,103
O=C(CN1C(=O)COc2ccc(S(=O)(=O)N3CCOCC3)cc21)N1CCN(c2cccc(C(F)(F)F)c2)CC1,88,85,-44,104
CC1CCC(N2CC(=O)N(C3CCCCC3)C(c3ccc(Cl)cc3)C2=O)CC1 (stereo not given),87,81,.,105
CCC1(C)CC(=O)c2c(ccc3oc(C(=O)N4CCc5ccccc5C4)c(C)c23)O1 (stereo not given),.,.,8,99
C=CCNc1nc(NCc2ccco2)nc(OCC)n1,108,97,-26,99
Cc1c(C(=O)NCc2cccnc2)sc2ncnc(N3CCOCC3)c12,.,.,-48,103
O=S(=O)(CCN1CCOCC1)c1ccccc1,73,73,-10,102
NC(=O)COc1coc(CN2CCN(c3ccccc3)CC2)cc1=O,88,91,-7,102
O=C(c1cc(C2CC2)[nH]n1)N1CCN(C2CCCCC2)CC1,.,.,2,100
N#Cc1cc2c([nH]c1=S)CCCC2,31,24,-51,97
Cc1ccc(S(=O)(=O)NCCc2nnc3ccc(SCC(N)=O)nn23)cc1,93,91,-30,101
CC(Oc1ccc(C(C)(C)C)cc1)C(=O)O (stereo not given),99,87,-1,.
O=C1Nc2ccccc2C1(C(F)(F)F)C(F)(F)F,100,93,4,106
O=C(/C=C/c1cccs1)Nc1ccc(N2CCOCC2)c(C(=O)O)c1,93,90,-17,99
COc1ccc(NC(=O)c2ccc3c(=O)n(Cc4ccco4)c(=S)[nH]c3c2)cc1OC,116,84,.,99
CCN(CC)c1ccc(/C=C2\C(=O)NC(=O)N(Cc3ccc(OC)cc3)C2=O)cc1,.,.,-14,105
CCOC(=O)C1CCCN(C(=O)Cc2ccc(OC)c(OC)c2)C1 (stereo not given),104,112,-8,104
CCN(c1ccccc1)S(=O)(=O)c1ccc(C(=O)NCCCN2CCCC2=O)cc1,90,97,1,.
COC(=O)c1c(N)oc2c(-c3cccc(C(F)(F)F)c3)c3c(C(=O)OC)c(N)oc3cc12,84,98,2,.
O=C(O)CN1C(=O)/C(=C\c2cccc(OCc3ccc(Cl)cc3Cl)c2)SC1=S,.,.,-6,103

# Among those listed so far, 2 have two or more sulfur atoms.
SMILES,Sa growth 42C,Sa growth 42C second temp,HCMV NEC inh,GIV Gai3 FP
Cc1ccc(S(=O)(=O)NCCc2nnc3ccc(SCC(N)=O)nn23)cc1,93,91,-30,101
O=C(O)CN1C(=O)/C(=C\c2cccc(OCc3ccc(Cl)cc3Cl)c2)SC1=S,.,.,-6,103

# 3 compounds out of the list, sorted by number of heavy atoms, largest number first:
SMILES,Sa growth 42C,Sa growth 42C second temp,HCMV NEC inh,GIV Gai3 FP
CCN(c1ccccc1)S(=O)(=O)c1ccc(C(=O)NCCCN2CCCC2=O)cc1,90,97,1,.
Cc1ccc(S(=O)(=O)NCCc2nnc3ccc(SCC(N)=O)nn23)cc1,93,91,-30,101
CCOC(=O)C1CCCN(C(=O)Cc2ccc(OC)c(OC)c2)C1 (stereo not given),104,112,-8,104

# (list continues)
SMILES,Sa growth 42C,Sa growth 42C second temp,HCMV NEC inh,GIV Gai3 FP
COc1ccccc1NC(=O)CCN1CCC(C(N)=O)CC1,108,101,31,105
O=C(Cn1cnc([N+](=O)[O-])n1)Nc1ccc(Cl)cc1Cl,.,.,-41,101
O=C1CCC(C(=O)N2CCN(c3ccc(F)cc3)CC2)=NN1,101,87,-25,.
CCC(C)N1Cc2ccccc2N(CC)C1c1ccccc1F (stereo not given),82,88,.,107
CCN1/C(=C2\C(=O)N(c3ccc(Cl)cc3)N=C2C)C=Cc2ccccc21,96,79,-35,102
CN(C)C(=O)C1Cc2ccccc2CN1S(=O)(=O)c1ccc(F)cc1 (stereo not given),86,107,17,101
CCOC(=O)c1c(CSc2ccccc2)n(C)c2cc(Br)c(O)c(CN(C)C)c12,.,.,-13&13,100
O=C(c1cc2cc(Cl)ccc2[nH]1)N1CCN(c2ccc(-c3noc(C4CCC4)n3)cc2)CC1,.,.,-8,98
CCOc1cc(C=C2C(=O)N(C)C(=O)N(C)C2=O)ccc1OCCOc1ccccc1,.,.,17,108
CC(C)OC(=O)/C(C#N)=C/c1ccco1,91,84,-68,.

# Profiles from above:
# CCC(C)N1Cc2ccccc2N(CC)C1c1ccccc1F (stereo not given) reads Sa growth 42C: 82; Sa growth 42C second temp: 88; HCMV NEC inh: .; GIV Gai3 FP: 107
# O=C(c1cc2cc(Cl)ccc2[nH]1)N1CCN(c2ccc(-c3noc(C4CCC4)n3)cc2)CC1 reads Sa growth 42C: .; Sa growth 42C second temp: .; HCMV NEC inh: -8; GIV Gai3 FP: 98
# CN(C)C(=O)C1Cc2ccccc2CN1S(=O)(=O)c1ccc(F)cc1 (stereo not given) reads Sa growth 42C: 86; Sa growth 42C second temp: 107; HCMV NEC inh: 17; GIV Gai3 FP: 101

# (more compounds)
SMILES,Sa growth 42C,Sa growth 42C second temp,HCMV NEC inh,GIV Gai3 FP
CSc1nsc(SCC(=O)OC2CC3CCC2(C)C3(C)C)n1 (stereo not given),96,104,5,106
CC(C)(C)c1cc2ncnc(NCc3ccc4c(c3)OCO4)c2s1,76,80,-21,96
O=C(c1ccc(C(F)(F)F)cc1)N1CCC(c2noc(-c3ccc(S(=O)(=O)N4CCCC4)cc3)n2)CC1,104,89,-23,104
CSc1nnc(SCC(=O)Nc2c(C#N)c(C)c(C)n2Cc2ccco2)s1,81,78,-39,.
COc1ccc(CCN2C(=O)CSC2c2ccc(OC)c(OC)c2)cc1OC (stereo not given),.,.,-13,96
Cc1cccc(N2CCN(C(=O)CCCn3ncn4c(cc5occc54)c3=O)CC2)c1C,109,73,-12,106
CC1CCCC(NC(=O)CNC(=O)c2cccs2)C1C (stereo not given),82,96,-4,110
O=C(NCc1cccs1)C1CCN(C(=O)N2CCOc3ccccc32)CC1,74,86,0,108
COC(=O)c1cc2ccsc2n1CC(=O)Nc1cccc(Cl)c1,.,.,-12,99
Cc1ccc(CCNC(=O)c2cnn(-c3ccc(Cl)cc3)c2)cc1,.,.,-13,96
CCc1ccc2[nH]c(=O)c(C(c3nnnn3C(C)(C)C)N3CCc4ccccc43)cc2c1 (stereo not given),95,87,-14,104
CC(C)Nc1nc(NC(C)C)nc(Oc2ccc(=O)[nH]n2)n1,89,83,-18,102
Cn1c(=O)cc(SCC(=O)N2CCN(c3ccccc3F)CC2)c2ccc(Cl)cc21,115,89,-21,107
O=C(C1CCCN(S(=O)(=O)c2ccc3nc(-c4ccccc4)[nH]c3c2)C1)N1CCc2ccccc21 (stereo not given),120,95,-2,97
Cc1cc(C)n2c(nc(=O)c3ccccc32)c1C#N,105,95,-24,.
O=C(COC(=O)c1cc(Br)ccc1O)NCc1ccccc1,85,101,14,.
N#Cc1ccc(CSc2nnc(-c3cccs3)n2-c2ccccc2)cc1,138,69,-1,.
CCOC(=O)c1c(C)c(-c2ccccc2)n(CC(=O)NCCc2cccc(C)c2)c1C,100,85,-31,99
CC1[N+](=O)C(c2ccccc2)=C(c2ccccc2)N([O-])C1(C)C (stereo not given),112,100,-11,104
O=C(Nc1ccccc1)Nc1ccc(N2CCn3c(nc4cc(Cl)ccc43)C2)cc1,.,.,-17,98
CC(C)c1ccc(C2CC(=O)N3CN(C4CCCCC4)CSC3=C2C#N)cc1 (stereo not given),80,73,-45,103
Cc1c(Cl)cccc1NC(=O)Cn1c(=O)n(Cc2ccco2)c(=O)c2oc3ccccc3c21,121,83,.,102
O=C(COc1ccccc1)NC1CC(=O)N(c2ccc3c(c2)OCCO3)C1 (stereo not given),82,89,.,97&99
O=C(NCC(O)c1ccccc1)Nc1ccc2c(c1)CCO2 (stereo not given),92,79,-23,101
[N-]=C=C1C(=O)N(CCc2ccccc2)C(=O)[C@H]([n+]2ccccc2)[C@H]1c1ccc(Cl)cc1,81,68,40,.
c1ccc2c(c1)nc1n2CCC1,84,116,-114,93
Cc1cc(Br)ccc1NC(=O)Cn1cnc2c1c(=O)n(C)c(=O)n2C,.,.,-22,97
O=C(O)C1CCCN(c2ncnc3c2oc2ccccc23)C1 (stereo not given),.,.,-36,101
CC(N=Cc1nc2ccccc2n1C)C12CC3CC(CC(C3)C1)C2 (stereo not given),95,82,.,103
CCN(C(=O)CSc1nc2ccccc2[nH]1)c1ccccc1,105,93,-7,101

# Compounds above that have a thiophene ring, fused or not (7):
SMILES,Sa growth 42C,Sa growth 42C second temp,HCMV NEC inh,GIV Gai3 FP
Cc1c(C(=O)NCc2cccnc2)sc2ncnc(N3CCOCC3)c12,.,.,-48,103
O=C(/C=C/c1cccs1)Nc1ccc(N2CCOCC2)c(C(=O)O)c1,93,90,-17,99
CC(C)(C)c1cc2ncnc(NCc3ccc4c(c3)OCO4)c2s1,76,80,-21,96
CC1CCCC(NC(=O)CNC(=O)c2cccs2)C1C (stereo not given),82,96,-4,110
O=C(NCc1cccs1)C1CCN(C(=O)N2CCOc3ccccc32)CC1,74,86,0,108
COC(=O)c1cc2ccsc2n1CC(=O)Nc1cccc(Cl)c1,.,.,-12,99
N#Cc1ccc(CSc2nnc(-c3cccs3)n2-c2ccccc2)cc1,138,69,-1,.

# (cont.)
SMILES,Sa growth 42C,Sa growth 42C second temp,HCMV NEC inh,GIV Gai3 FP
CC(=O)NC1CC2CCCC(C1)N2S(=O)(=O)c1ccccc1 (stereo not given),93,91,-21,101
CCC(=O)N1CCc2cc(S(=O)(=O)NC(C(=O)NCCc3ccccc3)C(C)C)ccc21 (stereo not given),96,100,-3,102
Cc1nc(-c2ccc(Oc3ncc(C(F)(F)F)cc3Cl)cc2)no1,104,77,3,103
COc1cc2ccccc2cc1C(=O)Nc1cccc(-c2nc3cc(C)ccc3o2)c1C,103,88,-50,105
COc1ccc(-c2nc(CS(=O)CC(=O)NC(C)c3ccccc3)c(C)o2)cc1OC (stereo not given),93,75,.,100
COc1cc(=O)n(-c2ccccc2C)nc1C(=O)Nc1ccccc1,.,.,8,102
Cc1ccc(Cn2nccc2NC(=O)c2cccnc2Sc2ccccc2)o1,101,98,-3,.
NC(=O)Cn1cc(C(=O)C2CC2)c2ccccc21,101,77,-3,105
Cc1ccc(S(=O)(=O)NCC2CCC(C(=O)N(C)Cc3ccccc3)CC2)cc1 (stereo not given),104,92,.,105
COc1ccc(O)c(/C=N/NC(=O)c2ccn(Cc3ccc(Cl)cc3)n2)c1,82,113,-8,97
CCC(C)Nc1cc(C(C)C)nc2nc(-c3cccnc3)nn12 (stereo not given),.,.,-6,106
O=S(=O)(CCSc1nccc(-c2cccs2)n1)c1ccc(F)cc1,83,87,-28,99
COc1cc(Nc2cnn(-c3nc4ccccc4s3)c(=O)c2Cl)cc(OC)c1,119,84,.,105
CC(C)=NNC(=O)C(NC1CCCCC1)c1ccccc1 (stereo not given),93,95,0,.
Cc1ccc(-c2nc(S(=O)(=O)c3ccc(C)cc3)c(N3CCCCC3)o2)cc1,103,82,-66,107
COc1ccc(C2=CSC3=NS(=O)(=O)CCN23)cc1Cl,101,92,4,.
CCN(CC)c1cc(CS(=O)c2ccccc2)nc(-c2ccccc2)n1 (stereo not given),.,.,-19,98
Cc1ccc(-c2noc(C3CCN(C(=O)c4cncc(Br)c4)CC3)n2)cc1,.,.,-12,98
Cc1ccccc1OCC(O)Cn1c(C2CC(=O)N(C(C)(C)C)C2)nc2ccccc21 (stereo not given),.,.,25,104
CC(C)c1cc(C(=O)O)on1,94,80,8,106
O=c1oc(-c2ccco2)nc2sc3c(c12)CCCC3,97,88,-14,97
CN(C(=O)CSc1cn(CC(=O)N2CCCCCC2)c2ccccc12)c1ccccc1,100,104,.,107
COc1ccc(NC(=O)N2CC(C)OC(C)C2)c(OC)c1 (stereo not given),103,97,-22,98
O=C(/C=C/c1ccccc1)Nc1cccnc1,75,85,-46,.
O=C1CCCc2nc3nc4ccccc4n3cc21,80,90,-2,110
COc1cc(OC)c(NC(=O)c2ccc3c(c2)N(Cc2ccc(C)cc2)CCS3)cc1Cl,103,83,-16,107
COc1ccccc1N(CC(=O)NCC1CCCO1)S(=O)(=O)c1ccc(C)cc1 (stereo not given),100,106,.,100
CC(CCc1ccccc1)NC(=O)CN1C(=O)CC(c2ccc(F)cc2)=Nc2ccccc21 (stereo not given),.,.,-21,100
CCc1noc2ncnc(Nc3cccc(F)c3)c12,.,.,-11,103
CCOC(=O)c1c(Cl)c(C(C)(C)C)nc(Sc2ccccn2)c1C#N,108,82,3,98
CCOc1cccc(C2Oc3nc(SC)nnc3-c3ccccc3N2C(C)=O)c1OC (stereo not given),97,88,-58,105
COc1ccccc1-c1coc2cc(OCC(=O)OCC(C)C)ccc2c1=O,103,74,.,95
CC(C)(C)NC(=O)CSc1nc(C(F)(F)F)cc(=O)[nH]1,92,85,-27,104
CCn1cnc(S(=O)(=O)N2CCC(C(=O)N3CCN(c4ncccn4)CC3)CC2)c1,.,.,-24,104
COc1cccc(C(=O)c2cn(CC(=O)Nc3cccc(Cl)c3C)c3nc(C)ccc3c2=O)c1,90,82,.,107
O=C(c1ccccc1)n1nc(-c2ccco2)nc1NCc1ccccc1Cl,84,92,-1,111

# Source: PubChem BioAssay
